Compound activity as filed in PubChem.
GLA inh pH 4.5 = inhibitors of human alpha-galactosidase A at pH 4.5 | purified enzyme, 4-MU-alpha-Gal fluorescence, pH 4.5 | activity change, negative = inhibition, % at 105 µM | 230,000 tested, under 10 active | AID 1467; inconclusive = small, poorly fitted or top-dose-only inhibition, or a rising curve; inactive = flat fitted curve, though single readings scatter; no compound was filed as active;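 note: 0% = full activity with enzyme and -100% = basal without enzyme; dose as in the result columns while the protocol names 77 µM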
Target sequence (P06280 whole entry, looked up): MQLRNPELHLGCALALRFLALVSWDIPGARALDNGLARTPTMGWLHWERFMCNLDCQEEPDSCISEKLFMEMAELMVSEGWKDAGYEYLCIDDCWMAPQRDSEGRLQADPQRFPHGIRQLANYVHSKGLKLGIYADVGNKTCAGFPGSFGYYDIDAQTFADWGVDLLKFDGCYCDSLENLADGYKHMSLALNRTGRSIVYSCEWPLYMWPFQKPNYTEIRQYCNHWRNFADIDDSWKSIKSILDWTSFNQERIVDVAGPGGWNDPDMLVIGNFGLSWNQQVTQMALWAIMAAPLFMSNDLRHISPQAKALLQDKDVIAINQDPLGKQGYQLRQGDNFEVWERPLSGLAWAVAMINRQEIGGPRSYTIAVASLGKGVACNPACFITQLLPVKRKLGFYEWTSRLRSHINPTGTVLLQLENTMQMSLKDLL
The depositor's hits bear a star; ? = inconclusive; & = joins results of further samples.

A first look:
SMILES	GLA inh pH 4.5
O=C(O)c1ccc(-c2ccccc2C(F)(F)F)s1	-4.5
CCC1CN2CCc3cc(OC)c(OC)cc3C2CC1CC1NCCc2cc(OC)c(OC)cc21 (stereo not given)	3.5

The list itself, repeating the preview:
SMILES	GLA inh pH 4.5
O=C(O)c1ccc(-c2ccccc2C(F)(F)F)s1	-4.5
CCC1CN2CCc3cc(OC)c(OC)cc3C2CC1CC1NCCc2cc(OC)c(OC)cc21 (stereo not given)	3.5
COC(=O)c1ccc(C(NC(=O)OCc2ccccc2)/C(I)=C/[C@@H](C)C(=O)NCc2ccc(C)o2)cc1 (stereo not given in full)	-9.1
C[C@@]1(C(NC(=O)c2ccccc2)c2ccc(-c3ccccc3)cc2)C[C@H]1C1CCCCC1 (stereo not given in full)	-15.3
CN(Cc1ccccc1)C(=O)[C@H](Cc1ccc2ccccc2c1)NC(=O)[C@@H]1CCCN1C(=O)Nc1ccccc1[N+](=O)[O-]	-18.9
COC(=O)c1ccc(C(NC(=O)OCc2ccccc2)/C(=C/[C@@H](C)C(=O)NCc2ccncc2)c2cccnc2)cc1 (stereo not given in full)	-5.3
Nc1nc(=S)c2ncn([C@H]3O[C@@H](CO)[C@@H](O)[C@@H]3O)c2[nH]1	-6.9
CC1(OC(=O)c2cccs2)C(=O)C=C2C=C(c3ccc(C#N)cc3)OC=C2C1=O (stereo not given)	2.7&-17.1
CCCCNc1nc(C)nc2c1nc(-c1ccccc1)n2CCCCN(CC)CC	-14.7
CCCCCCCCCCCCC/C=C/[C@@H](O)[C@H](COP(=O)([O-])OCC[N+](C)(C)C)NC(=O)CCCCCCCCCCCCCCCCC	-2.2
CC1=C(C2=C(C)C(C(C)C)C3=C(C(=O)C(O)C3O)C2O)C(O)C2=C(C(O)C(O)C2=O)C1C(C)C (stereo not given)	-3.4
COC1=CC(C)C2CC3OC(=O)CC4C(C)=C(OC)C(=O)C([C@]2(C)C1=O)[C@]34C (stereo not given in full)	-9.3
CCC[C@@H]1C[C@@]1(CCC)[C@@H](NC(=O)Oc1ccccc1)c1ccc(C(=O)OC)cc1	-3.5
CC(=O)OC1CC2C(C)(C)C(=O)CC[C@]2(C)C2CC[C@]3(C)C(=CC(=O)OC3c3ccoc3)[C@]12C (stereo not given in full)	-3.6
Cc1ccc(S(=O)(=O)N2CCc3nc(COc4ccccc4)c4c(c3C2)CO[C@@H](C)C4)cc1	-2.4
COC(=O)[C@@H]1C[C@@H]2CC[C@@H](O)C[C@@H]2N1CC1CCCCC1	1.5
CCC/C=C(\CCC)C(NS(=O)(=O)c1cccs1)c1ccc(C(=O)OC)cc1 (stereo not given)	-7.9
C[C@H]1CC2[C@@H]3CCC4=CC(=O)C=C[C@]4(C)[C@@]3(Cl)[C@@H](O)C[C@]2(C)[C@@]1(O)C(=O)CO (stereo not given in full)	-4.7
O=C(/C=C/c1c(C(=O)O)[nH]c2cc(Cl)cc(Cl)c12)Nc1ccccc1	-0.3
O=C(NC1CCCC1)O[C@@H]1C(=O)c2cc(Br)ccc2O[C@H]1c1ccc2c(c1)OCO2	-5.8

Part of the list above, with each value named.
smiles: CC(=O)OC1CC2C(C)(C)C(=O)CC[C@]2(C)C2CC[C@]3(C)C(=CC(=O)OC3c3ccoc3)[C@]12C (stereo not given in full)
- GLA inh pH 4.5: -3.6
smiles: Cc1ccc(S(=O)(=O)N2CCc3nc(COc4ccccc4)c4c(c3C2)CO[C@@H](C)C4)cc1
- GLA inh pH 4.5: -2.4
smiles: COC(=O)[C@@H]1C[C@@H]2CC[C@@H](O)C[C@@H]2N1CC1CCCCC1
- GLA inh pH 4.5: 1.5
smiles: CCC/C=C(\CCC)C(NS(=O)(=O)c1cccs1)c1ccc(C(=O)OC)cc1 (stereo not given)
- GLA inh pH 4.5: -7.9

More results.
SMILES	GLA inh pH 4.5
Fc1ccc(-c2nc3n(c2-c2ccncc2)CCS3)cc1	-4.5
C=CCOC(=O)N[C@H](c1ccco1)C(C(C)=O)C(C)=O	1.3
COc1ccc(C(=O)Oc2ccc3c(-c4ccc(OC)cc4)cc(=O)oc3c2)cc1	-3.2
CCCCCCCCCCCCCCCC(=O)NC(C)C(=O)O (stereo not given)	7.1
c1ccc(-c2nc(-c3cccc4ccccc34)c(Nc3ccc4ccccc4c3)o2)cc1	-1.5
CC(C)(C)c1ccc(/C=C/C(=O)Nc2ccc3c(c2)OCCO3)cc1	-5.5
CCCn1c(-c2ccc(F)cc2)nc2c(NCCN3CCOCC3)nc(C)nc21	-1.0
CCCCc1nc2c(c3c1C[C@H](C)OC3)CN(S(=O)(=O)c1ccc(C)cc1)CC2	5.7
CC(C)C[C@@H](CC(=O)N[C@H](CC(=O)N[C@@H]1CCNC[C@H]1C(=O)N[C@H](CC(=O)N[C@@H](CCC(=O)O)CC(=O)O)Cc1ccccc1)C(C)C)NC(=O)[C@@H]1CNCC[C@H]1N	-10.5
CCN(CC)CCn1c(-c2ccccc2)nc2c(NCCO)nc(C)nc21	0.6
c1ccc(-c2nc(-c3cccs3)c(NC3CCCCC3)o2)cc1	2.1
CC[C@@]12C=C(/C=C/c3ccccc3)[C@](CC)(C1)[C@H](c1ccccc1)CC2=O	0.0
CSCCC(N)C(=O)NC(CC(C)C)C(=O)NC(Cc1ccccc1)C(=O)O (stereo not given)	1.7
C#CCCCCCCCCCCCC(=O)CC(O)COC(C)=O (stereo not given)	4.1
CCCCC/C=C\C/C=C\C/C=C\C/C=C\CCCCCC(=O)NC(C)C(=O)O (stereo not given)	-4.1
C=C1CCC(O)C/C1=C\C=C1/CCCC2(C)C1CCC2C(C)/C=C/C(C)C(C)C (stereo not given)	-8.0
CCCn1c(-c2ccc(F)cc2)nc2c(NCC(C)(C)CN(C)C)nc(C)nc21	-8.4
CCN(CC)CCSC(=O)C(c1ccccc1)c1ccccc1	-12.4
CCC1=C2CC[C@H]3C(=O)N(CC)C(=O)[C@H]3[C@H]2[C@@]2(C)C(=NCCc3c[nH]c4ccccc34)OC(=O)N2C1=O	-5.1
CCCCC/C=C\C/C=C\CCCCCCCC(=O)NC(C)C(=O)O (stereo not given)	-3.9
N[C@@]1(C(=O)O)CN[C@H](C(=O)O)C1	6.7
COc1ccc2c(c1)C(=O)[C@H](OC(=O)Nc1ccc(C)c(Br)c1)[C@@H](c1ccc(OC)c(Br)c1)O2	-2.1
Cc1c(CC(C)(C)C(=O)O)n(Cc2ccc(Cl)cc2)c2ccc(F)cc12	-17.0
COC(=O)c1c(OC)cc2c(c1C)Oc1c(Cl)c(OC(C)=O)c(Cl)c(C)c1C(=O)O2	5.8
COc1c2ccoc2nc2c(OC)c(O[C@@H]3O[C@H](C)[C@@H](O)[C@@H](O)[C@H]3O)ccc12	-8.0
CC(=O)OC1CC(OC(C)=O)[C@]2(C)C(CC(OC(C)=O)[C@@]3(C)C4=CC(=O)OC(c5ccoc5)[C@]4(C)CCC32)C1(C)C (stereo not given in full)	-8.2
CCCCC1=CC2=C(OC(C)=O)C(=O)C(C)(OC(=O)CC)C(=O)C2=CO1 (stereo not given)	-3.7
COC(=O)c1ccc(C(NC(=O)OCc2ccccc2)/C(C)=C/[C@@H](C)C(=O)N[C@@H](CO)Cc2ccccc2)cc1 (stereo not given in full)	0.1
CCCCC[C@H](O)/C=C/[C@H]1OC(=O)C[C@H](O)[C@@H]1C/C=C\CCCC(=O)O	-5.9
Clc1cccc(C=NC=Nc2cccc(Cl)c2)c1	6.5
N[C@@H](COP(=O)(O)O)C(=O)O	-0.1&-0.2
Oc1ccc(Cn2cc[nH]c2=S)cc1	1.2
C=C(C)[C@H]1CC=C(CO)CC1	-7.8
COC(=O)[C@@]1(Cc2ccc(OC)cc2)[C@@H]2[C@@H](CC(=O)[C@H]2CC(=O)C(=O)N2CCCC2)CN1C(=O)c1ccccc1	-2.9
c1cncc(CNc2ncncc2-c2ccc3c(c2)OCO3)c1	-12.4
O=C(Cc1ccc(Cl)c(Cl)c1)OCCN1CCCC1	-5.5
C=C(C(=O)OCC)C(=O)c1ccccc1	3.1
CCCCC[C@H](O)/C=C\[C@@H]1[C@H](O)CC(=O)[C@@H]1CCCCCCC(=O)O	-1.6
COC(=O)[C@H]1[C@H]2CC3c4[nH]c5ccccc5c4CCN3C[C@@H]2CC[C@@H]1O (stereo not given in full)	-3.9
Cc1cccc(CNc2ncnc3ccc(-c4ccc(C(=O)N(C)C)cc4)cc23)c1	-5.7
Nc1c(N=Nc2ccc(-c3ccc(N=Nc4cc(S(=O)(=O)O)c5ccccc5c4N)cc3)cc2)cc(S(=O)(=O)O)c2ccccc12	-14.2
Nc1ncnc2c1ncn2[C@@H]1O[C@H](C(=O)NC2CC2)[C@H](O)[C@H]1O	2.5
C=C(C)C(=O)/C=C/C=C/c1ccccc1	-1.0
CCCn1c(C)nc2c(N3CCC(N(C)C)C3)nc(C)nc21 (stereo not given)	-1.8
CN1C(=O)CCC1c1cccnc1 (stereo not given)	1.1&-12.7&2.7
NCCCNCCCCN(CCCN)/[N+]([O-])=N/O	0.9
C[C@]12C[C@@](C)(C=C1/C=C/c1ccc(F)cc1)C(=O)C[C@H]2c1ccc(F)cc1	-0.8
Nc1ncnc2c1nc(Br)n2C1OC(CO)C(O)C1O (stereo not given)	1.0
CN(C)C(=O)c1ccc(-c2nc(NCc3ccccc3)c3ccccc3n2)cc1	-12.4
CC(=O)OC1CC2CCC1(C)C2(C)C (stereo not given)	-7.3

New compounds follow
SMILES	GLA inh pH 4.5
CC(C)[C@H](O)C1=CCCCC1=O	-3.5
CC(=O)NCCNc1nc(-c2ccccc2CN(C)C)nc2ccccc12	-10.0
COc1ccc2[nH]cc(CCNc3cc(-c4ccoc4)ncn3)c2c1	8.5
CC12C(=O)OC(=O)C1(C)C1CCC2O1 (stereo not given)	1.2&-0.5
C=C/C1=C/Cc2ccccc2[C@H](C[N+](=O)[O-])C(C(=O)OC)(C(=O)OC)C1	-2.0
COC(=O)[C@@]1(Cc2ccc(OC)cc2)[C@H]2c3cc(C(=O)N(C)C)n(CCc4ccccn4)c3C[C@H]2CN1C(=O)c1ccccc1	-16.4
CCOC(=O)/C(C)=N/NC(C)=O	0.4
CCCC[C@@H]1C[C@H]1C(NC(=O)c1ccc(-c2ccccc2)cc1)c1ccc(-c2ccccc2)cc1 (stereo not given in full)	0.2
CC1(C)C(O)C=C[C@@]2(C)C1CC(=O)O[C@@]1(C)C3=CC(=O)OC(c4ccoc4)[C@]3(C)CCC21 (stereo not given in full)	2.6
CCNC(=O)CCC(N)C(=O)O (stereo not given)	3.6
CC1=NN(c2ccc([N+](=O)[O-])cc2)C(=O)C1[N+](=O)[O-] (stereo not given)	-12.5
COc1ccccc1C1CC(=O)Oc2cc3c(cc21)OCO3 (stereo not given)	-9.5
COC(=O)C/C=C1\c2ccc3c(c2[C@@H](OC)[C@@H]1C)OCO3	1.1
O=C(O)[C@H]1NCCC[C@H]1C(=O)O	-2.1
c1cncc(-c2cncnc2-n2ccnc2)c1	-3.2
O=C1C(Cl)=C(NCCN2CCOCC2)C(=O)c2ncccc21	-3.5
CCCCCCCCCCCCCCC[C@@H](O)[C@H](CO)NC(C)=O	-0.4
C[C@@H](N)C(=O)O	0.5
CCCn1c(-c2ccc(F)cc2)nc2c(N3CCN(CCn4ccnc4)CC3)nc(C)nc21	-8.6
CC#CCN1c2ccccc2[C@]23C[C@@H](C(=O)OC)N(S(=O)(=O)c4ccc5c(c4)OCCN5C)C2=NC(C(=O)OC)=C(C(=O)OC)[C@H]13	-3.8
COCOc1ccc(OC)cc1C(=O)/C=C/c1ccc(OC)c(Br)c1	-7.8&-22.9
Cc1cc2ccc(=O)oc2cc1OC[C@@H](O)C(C)(C)O	?
Cc1nc(N=Nc2cc(S(=O)(=O)O)c3cc([N+](=O)[O-])cc(S(=O)(=O)O)c3c2)c(COP(=O)(O)O)c(C=O)c1O	-11.4&-19.0
CC(=O)OCC(=O)[C@@]1(O)CCC2C3CCC4=CC(=O)C=CC4(C)C3C(O)C[C@]21C (stereo not given in full)	1.6
COC(=O)C/C=C/[C@@H](C)[C@H](NC(=O)OCC(Cl)(Cl)Cl)c1ccccc1	-4.2
C[C@H]1Cc2c(COc3ccccc3)nc3c(c2CO1)CN(C(=O)NCCc1c[nH]c2ccccc12)CC3	3.4
C/C(Nc1ccc2oc(=O)ccc2c1)=C1/C(=O)CC2[C@@H]1C2(C)C (stereo not given in full)	-2.2
CN1CCN(c2ncnc3ccc(-c4ccccc4C#N)cc23)CC1	-7.0
O=C(/C=C/C(=O)Oc1ccccc1C(=O)O)Oc1ccccc1C(=O)O	3.8
N=C(C[C@@H](O)COc1ccccc1-c1ccccc1)N1CCCCC1	-15.2
CC(=O)OCC(=O)C1CCC2C3CC=C4CC(O)CC[C@@]4(C)C3CC[C@]12C (stereo not given in full)	23.8
CC(=O)c1c(O)c(C)c(O)c2c1OC1=CC(=O)C(C(C)=O)C(=O)C12C (stereo not given)	-6.4
C=CCCCCCCCCCCC/C=C/C(O)COC(C)=O (stereo not given)	-15.7
O=C1CCC=C1C(O)c1ccc(Cl)cc1 (stereo not given)	-4.1
CN(C)c1nc(-c2ccoc2)nc2ccccc12	-9.6
Cc1cc(=O)cc2oc3cc(N)c(-c4c(C)cc(O)cc4O)c(C)c3nc1-2	-8.7
COC(=O)[C@@]1(Cc2ccc(OC)cc2)[C@H]2c3cc(C(=O)N(C)C)n(CCc4ccc(O)c(OC)c4)c3C[C@H]2CN1C(=O)c1ccccc1	-8.3
COc1ccccc1-c1ccc2ncnc(NCc3cccnc3)c2c1	-1.1
O=C(NCCCCCCNC(=O)ON=C1CCCCC1)ON=C1CCCCC1	3.6
O=C1N=C(O)CN1/N=C\c1ccc(-c2ccc([N+](=O)[O-])cc2)o1	-9.5&-7.6
O=P1(O)Oc2c(-c3ccccc3)cc3ccccc3c2-c2c(c(-c3ccccc3)cc3ccccc23)O1	-16.3
CC(=O)Nc1ccc(/C=N/NC(N)=S)cc1	0.9

Not all compounds are listed, so the mix of outcomes need not match the whole.
